Sfp PPTase inh – Sfp phosphopantetheinyl transferase inhibition. Q9F4F7. Biochemical Sfp PPTase activity, qHTS. Potency, µM, for inactives: max response, negative = inhibition, usual class: inhibitors. 310,000 compounds, 3.5% hits. AID 1490; active means well fitted inhibition curve with a large enough effect; inconclusive means small, poorly fitted or top-dose-only effect, or another doubt; inactive means no such curve, though single readings can be large or run the other way;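 further: the enzyme is Sfp with the accession as filed and its product quenches rhodamine fluorescence; potency means the concentration at half of the fitted maximal effect; 0% = enzyme reaction without inhibitor and -100% = no enzyme wells; top concentration of the series not given in the record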
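Sfp 15 nM + cpd, 15 min RT; start w/ rhodamine-CoA 5 uM, BHQ-2-YbbR 12.5 uM (final); 50 mM Hepes pH 7.6, 10 mM MgCl2, 0.01% NP-40, 0.01% BSA; read 525/598 nm at 0 and 30 min.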
D2 potentiator – positive allosteric modulators of human D2 dopamine receptor | P14416 | DiscoveRx D2 beta-arrestin cells, luminescence, 90 min; 100% = 57 uM dopamine signal | potentiation, % (test concentration not listed) | 360,000 compounds, 0.23% hits; active = potentiation of 50% or more; inconclusive = 30% to 50%; inactive = 30% or less;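 further: compound concentration not given in the record; tested on top of an EC20 dose of dopamine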
Target sequence (P14416 whole entry, looked up): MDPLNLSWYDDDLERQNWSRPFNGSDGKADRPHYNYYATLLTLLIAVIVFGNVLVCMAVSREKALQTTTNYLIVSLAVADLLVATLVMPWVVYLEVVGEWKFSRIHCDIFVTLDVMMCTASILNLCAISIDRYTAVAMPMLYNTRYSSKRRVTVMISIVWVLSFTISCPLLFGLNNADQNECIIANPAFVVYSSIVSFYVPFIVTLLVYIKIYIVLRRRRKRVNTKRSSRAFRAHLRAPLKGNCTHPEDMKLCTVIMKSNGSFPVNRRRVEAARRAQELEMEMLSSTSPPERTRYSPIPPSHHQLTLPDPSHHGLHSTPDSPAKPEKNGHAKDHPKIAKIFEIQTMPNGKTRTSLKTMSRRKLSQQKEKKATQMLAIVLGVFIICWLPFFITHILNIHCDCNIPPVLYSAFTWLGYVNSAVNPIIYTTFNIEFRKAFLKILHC
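D2 cells co-treated with compound plus 50 nM dopamine (EC20) for 90 min at 37 deg C to detect potentiation. Beta-arrestin recruitment was read as enzyme-fragment luminescence after 1 h at ambient temperature. Full response was set by 57 uM dopamine.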
PINK1 modulator – PINK1 expression modulation | PINK1 immunofluorescence, high-content cytometry, 24 h | Potency, µM (doses to about 76.6 µM), for inactives: at the highest dose activation (PINK1 increase), usual class: activators | 410,000 compounds, 0.2% hits | AID 624263; active = well fitted activation curve with a large enough effect; inconclusive = small, poorly fitted or top-dose-only effect; inactive = flat fitted curve, though single readings scatter; cell line not stated here;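 further: potency means the concentration at half of the fitted maximal effect; % of control where 0% means no effect; nearly all actives have a fitted effect of over 65% in size; a mitochondrial uncoupler was the plate control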
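PINK1 protein level read as immunofluorescence by microplate cytometer in a fixed, stained stable cell line after 24 h exposure to five compound concentrations, with CCCP as control.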
D2 ag – agonists of human D2 dopamine receptor (beta-arrestin). P14416. DiscoveRx PathHunter D2 beta-arrestin, luminescence, 90 min; 100% = 57 uM dopamine signal. activation, % (concentration not given with the values). 360,000 compounds, 0.084% hits. AID 624465; in the data active = activation above about 40%; inconclusive = about 15% to 40%; inactive = below about 15%; further: the text of the record calls up to 30% inactive
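DiscoveRx PathHunter D2 beta-arrestin cells (2,100/well) attached overnight, then compound-stimulated 90 min at 37 C in HBSS/10 mM HEPES/0.1% Tween-20 buffer; beta-galactosidase complementation read by luminescence after 1 h at ambient temperature. Dopamine 57 uM final (EC100) as control.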
TRPV1 PAM – enhances activation of the human vanilloid receptor TRPV1; Q8NER1; TRPV1-expressing cells, Fluo-8 calcium influx, capsaicin EC20 potentiation; host cell line not named in the record; control for the full effect not named in the record; potentiation, % at 8.33 µM; 320,000 compounds, 0.02% hits; AID 540277; active means potentiation above 80%; inconclusive means 30% to 80%; inactive means below 30%; further: 0% is about no effect
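Cells expressing TRPV1 were dye-loaded with Fluo-8 and read kinetically: 10 s baseline, 3 min after compound (agonist portion), then 2 min after EC20 capsaicin (allosteric enhancer portion). Calcium-bound dye fluorescence at 480/520 nm.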
Six1-Eya2 inh – inhibitors of human Six1/Eya2 interaction; Q15475+O00167; AlphaScreen GST-Six1/His-Eya2 binding, biochemical; hits give low values; control for the full effect not named in the record; activity change, % (test concentration not listed); 360,000 compounds, 0.56% hits; AID 651725; in the data active = activity change below about -65%; inconclusive = about -30% to -65%; inactive = above about -30%; further: on the % scale 0 is the no-effect control and ±100 the full control effect
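AlphaScreen luminescence read after one hour at 37 °C in darkness. Pin-transferred compounds met GST-Six1 and His-Eya2 protein (5X stock 250 nM/500 nM) plus glutathione donor and Ni-chelate acceptor beads (5X, 50 ug/mL).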
CtBP-E1A inh – inhibitors of CtBP/E1A interaction; AlphaScreen GST-E1A/His-CtBP binding, 1536-well; hits give low values; control for the full effect not named in the record; activity change, % (no concentration beside the values); 340,000 compounds, 0.49% hits; AID 651724; in the data active means activity change below about -65%; inconclusive means about -30% to -65%; inactive means above about -30%; further: on the % scale 0 is the no-effect control and ±100 the full control effect
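In 5 uL wells, 23 nL compound meets equimolar GST-E1A and His-CtBP (5X stock 125 nM each) for 2 h, 37 °C. Beads (5X, 50 ug/mL) then 1 h, 37 °C, dark.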
Numbers without * were called inactive; ? = inconclusive; . = no result given; & = joins results of further samples; [ ] = dose if it differs, or a comment. Rows are unselected (roughly 3.7% active in at least one column).

Molecule	Sfp PPTase inh	D2 potentiator	PINK1 modulator	D2 ag	TRPV1 PAM	Six1-Eya2 inh	CtBP-E1A inh
CCOc1ccc(CN2CCNC(=O)C2CC(=O)NCCc2nc(C)c3c(n2)CCC3)cc1 (stereo not drawn)	14.5%	-2.0	-1.7%	-1.7	6.9	0.6	1.3
COC(=O)c1cc(NC(=O)Cn2nc(C)n3cccc3c2=O)cc(C(=O)OC)c1	-11.6%	-7.8	3.7%&1.8%	-1.3	-0.5	0.0	.
CCOC(=O)C1(CCOc2ccccc2)CCN(CC(O)CO)CC1 (stereo not drawn)	15.8%	-4.5	-0.6%	-4.6	-3.9	-1.1	4.5
Cn1ccc(O)c(C#N)c1=O	-3.4%&7.0%	-25.1	-0.9%	-8.9	18.2	2.8	6.5
CC(=O)OC(COC1C[C@@H]2CC[C@@]1(C)C2(C)C)C[N+]1(C)CCCCC1 (stereo partly drawn)	-14.2%	-9.8	-0.7%	-3.4	-2.0	-8.3	-11.4
CNC[C@H](CC1CCCCC1)NC[C@H](CO)NCCc1cccc(C(F)(F)F)c1	4.1%	-104.4	1.9%	1.0	12.5	-6.1	-4.4
Cc1ccc2cc(C(c3nnnn3CC3CCCO3)N3CCc4ccccc4C3)c(=O)[nH]c2c1 (stereo not drawn)	10µM*	-13.6	9.3%	-2.0	14.0	-0.4	-3.6
CN(C)c1nc2c(c(=O)[nH]c(=O)n2C)n1Cc1ccc(F)cc1	19.9%	-1.5	2.5%	-1.5	10.8	-5.3	3.6
COC(=O)c1c(NC(=O)Cc2ccccc2)sc2c1CCN(C(C)C)C2	14.8%	-11.2	2.3%	-8.6	-18.1	-8.3	-8.0
COc1ccc(-c2noc(C3CCCN(C(=O)c4ccccc4OC)C3)n2)cc1OC (stereo not drawn)	-11.7%	12.2	-0.8%[38.3 µM]	1.7	12.8	-4.5	-9.8
O=C(Nc1ccc(S(=O)(=O)N2CCCC2)cc1)c1c(F)cccc1F	4.9%	0.0	0.3%	-1.1	-30.2	-3.7	-6.0
O=C(NCc1ccc2c(c1)OCO2)c1cccc(N2CCCC2=O)c1	12.9%	-23.5	0.3%	-4.0	0.3	-2.1	-0.3
COC(=O)CCC(=O)N(CCN(Cc1ccccc1)C(=O)CCC(=O)OC)Cc1ccccc1	.	-5.4	0.3%	-5.7	.	-12.8	8.9
COc1cccc(CC(=O)NCC2(N3CCCCC3)CCCCC2)c1	10.8%	-14.0	-2.5%	2.4	27.9	5.5	.
CCN1C(=O)CC(N2CCC(Cc3ccccc3)CC2)C1=O (stereo not drawn)	13.8%	-9.5	1.4%	1.4	0.6	2.3	-0.8
CCOC(=O)C1=NNC(C(=O)c2ccc(C)cc2)C1c1ccc(OC)cc1 (stereo not drawn)	6.5%	-25.0	-1.0%	-7.1	5.1	-4.1	-1.4
COc1ccc(C2CC3(CC(C)(C)NC(SC)=N3)Oc3cc(O)cc(C)c32)cc1 (stereo not drawn)	-7.1%	-31.7	-0.7%	-6.6	15.1	-6.4	-18.2
CCN(CCNC(=O)Cn1cc2c(n1)CCCC2)c1ccccc1	19.6%	-6.1	0.3%	3.2	?	4.9	-1.6
C=CCn1c(SCc2ccc(C(=O)NCCO)cc2)nc2sc(C)c(C)c2c1=O	-12.4%	2.7	0.1%	-2.4	-3.7	-1.1	-11.3
Cc1cc(C)c(C#N)c(N2CCN(S(=O)(=O)Cc3ccccc3)CC2)n1	-3.3%	-6.1	0.2%	-5.8	3.2	-0.4	-0.2
Cc1cc(C(=O)COC(=O)c2ccccc2O)c(C)n1CC1CCCO1 (stereo not drawn)	.	1.5	0.0%	0.5	-14.8	-15.8	-15.3
O=C(Nc1ccc(Cl)cc1)N(Cc1nnc2n1CCCCC2)c1ccccc1	0.6%	-5.2	0.2%[38.3 µM]	-1.3	22.8	-0.3	-6.4
COc1cccc(Cn2cnc3c(sc4nc(C)cc(C)c43)c2=O)c1	-6.5%	-9.7	10.4%	1.4	1.7	-22.4	-12.3
CC(=O)Nc1ccc(-c2cc(C(=O)O)c3cc4ccccc4cc3n2)cc1	.	1.7	1.0%	-4.3	.	4.3	-0.6
COc1cc(OC)cc(C(=O)N2CCN(C(=O)c3cccs3)CC2)c1	11.5%	1.6	1.0%	-0.5	0.7	1.1	0.8

Two compounds picked at random from the list so far, as already listed:
Molecule	Sfp PPTase inh	D2 potentiator	PINK1 modulator	D2 ag	TRPV1 PAM	Six1-Eya2 inh	CtBP-E1A inh
CCOc1ccc(CN2CCNC(=O)C2CC(=O)NCCc2nc(C)c3c(n2)CCC3)cc1 (stereo not drawn)	14.5%	-2.0	-1.7%	-1.7	6.9	0.6	1.3
O=C(Nc1ccc(S(=O)(=O)N2CCCC2)cc1)c1c(F)cccc1F	4.9%	0.0	0.3%	-1.1	-30.2	-3.7	-6.0

New compounds follow.
Molecule	Sfp PPTase inh	D2 potentiator	PINK1 modulator	D2 ag	TRPV1 PAM	Six1-Eya2 inh	CtBP-E1A inh
CC(C)Oc1ccc(C(=O)Nc2ccc(C(F)(F)F)n(C)c2=O)cc1	-3.5%	0.7	1.3%	-2.6	-3.1	11.4	7.0
Cc1ccc(S(=O)(=O)Cn2nnnc2C(C(C)C)N2CCc3ccccc3C2)cc1 (stereo not drawn)	-28.5%	-5.1	.	0.2	-13.3	-3.6	-7.7
O=C(CN1C(=O)NC(Cc2ccccc2)C1=O)NC(=O)NC1CCCCC1 (stereo not drawn)	5.2%	24.1	-0.3%	-0.2	12.6	1.1	-0.5
O=C1NC(=O)C(CC(=O)N(Cc2cccs2)C2(C(=O)NC3CCCCC3)CCCCC2)N1 (stereo not drawn)	26.3%	-8.6	1.0%	-3.3	-10.0	5.9	-3.5
COc1ccc(C(=O)NC2CC3CCCC(C2)N3Cc2ccccc2)cc1OC (stereo not drawn)	11.8%	-5.4	4.3%	-4.9	1.3	3.4	-4.7
Cc1nn(CC(=O)NC(C)CCc2ccccc2)c(=O)c2nn(-c3ccccc3)c(C)c12 (stereo not drawn)	11.5%	-1.6	0.0%	-3.2	3.9	9.9	8.9
CC(=O)Nc1ccc(C(=O)CN2C(=O)NC3(CCOc4ccccc43)C2=O)c(F)c1 (stereo not drawn)	.	-0.3	1.8%	-0.1	-0.7	5.9	-2.3
O=C(O)c1cc(N/N=C/c2c[nH]c3ccccc23)ccc1Cl	-3.2%	16.9	-2.3%	0.4	1.2	-21.7	-23.0
COc1cccc(NC(=O)[C@@H](NC(=O)N2CCn3c2nc2ccccc23)C(C)C)c1	5.9%	-5.2	-1.6%	2.1	22.2	-6.3	-2.7
CCOC(=O)C1=C(C)Nc2nc3ccccc3n2C1c1ccncc1 (stereo not drawn)	5.0%	5.9	.	-2.2	-1.0	-0.3	5.9
Cc1ccc(Cl)cc1N1CCN(C(c2cccnc2)c2nnnn2C2CCCCC2)CC1 (stereo not drawn)	-3.0%	-7.2	.	3.2	1.6	1.6	2.8
O=C(/C=C/c1ccccc1)N1CCC[C@H]1CO	18.1%	-3.1	0.1%	-3.4	-12.3	4.4	10.5
COCc1nnc(NC(=O)c2ccc(S(=O)(=O)N3CCCCCC3)cc2)o1	10.9%	-2.2	-0.7%	0.1	2.5	-13.5	-9.5
O=C(/C=C/c1ccc(Cl)cc1)NC(=S)Nc1ccc(NC(=O)c2ccco2)cc1	12.6%	4.3	5.3%	0.8	-16.9	1.2	3.3
Cn1cc(S(=O)(=O)Oc2ccccc2)c(=O)n(C)c1=O	14.3%	-18.6	2.1%	-4.9	0.8	0.0	1.9
Cc1ccc(F)c(S(=O)(=O)NC(=O)C2(C)CCN2C(=O)Cc2cccs2)c1 (stereo not drawn)	.	-1.0	-0.2%	-1.7	.	9.1	-1.3
COc1cc(NC(=S)NCCC(c2ccccc2)c2ccccc2)cc(OC)c1	16.0%	-1.4	3.0%	4.2	-15.8	-17.7	0.5
C/C(=N/OC(=O)c1ccc(F)cc1)c1ccc(C)cc1	-0.1%	-17.5	-1.3%	-4.0	-0.6	11.0	21.6
CCN(CC(=O)Nc1ccccc1OC)Cc1csc(CC(=O)Nc2ccc(C)cc2)n1	.	-8.7	-1.5%	-1.7	.	8.6	-4.5
Cc1cc(N/N=C/c2ccc(N(C)C)cc2)c2ccccc2n1	14.5%	-3.6	0.2%	6.2	7.2	9.3	.
COc1ccccc1Nc1c2c(nc3ccc(N)cc13)CCCC2	1.2%	-9.0	1.8%	-3.6	-7.7	-22.1	-1.5
Oc1ccc(C2=NN(c3ccccc3)C(c3ccc(F)cc3)C2)cc1 (stereo not drawn)	5.2%	-0.5	-2.3%	4.9	28.2	18.6	20.4
CCN(CC)C(=S)NC(=O)c1ccc(OC)c(Br)c1	7.0%	-18.0	4.3%	-8.4	-2.3	-21.9	-3.0
CN(C)CCCNC(=S)N(CCN(C)C)Cc1cc2cc3c(cc2[nH]c1=O)OCCO3	1.2%	-13.1	0.3%	4.2	1.8	2.7	-4.3
COc1ccc(-n2nnnc2SCC(=O)Nc2cccc(C)n2)cc1OC	10.5%	-2.1	.	0.6	3.1	-4.4	-7.0
N/C(=N\OC(=O)c1cccc(Br)c1)c1ccc(Br)cc1	7.5%	100.5*	13.5%	13.3	-5.6	3.8	10.2
Cc1c(S(=O)(=O)N2CCOCC2)c(=O)n(C)c(=O)n1C	27.3%	-2.3	-0.4%	4.5	-5.0	4.0	-0.3
COc1cc(O)c2c(c1)OC(C)(C)CC2=O	-11.7%	-5.1	-0.2%	-2.4	-9.8	8.6	9.3
CCCn1nc2cc(C(=O)N(CC)c3ccc(OC)cc3)ccc2c1OCC	16.6%	-2.0	0.4%	-0.8	7.0	1.9	1.6
CCCn1c(SC(C)C(=O)NC2CCCC(C)C2C)n[nH]c1=O (stereo not drawn)	.	-12.4	0.8%	-1.2	.	28.8	-6.5
COc1ccc(-c2ccc(C(=O)Nc3cccc(N(C)C)c3)c3occc23)c(C)c1	.	-14.6	0.2%	-1.0	.	?	-29.0
O=C(c1cccc(Cl)c1)N1CCC(=O)N([C@H](COCc2cccc(Cl)c2)Cc2ccccc2)CC1	17.9%	.	12.7%	.	.	-4.8	5.2
Cc1nnc(SC(C)C(=O)NC2CCCCC2)[nH]c1=O (stereo not drawn)	.	1.4	-0.3%	-3.9	.	8.8	8.0
